Screens: PubChem, National Center for Advancing Translational Sciences (NCATS)
TRPML1 agonist: qHTS for Agonists of the Human Mucolipin Transient Receptor Potential 1 (TRPML1) | Mucolipin-1 (Homo sapiens), Q9GZU1 | TRPML1-expressing cells, Ca2+ dye fluorescence, FDSS; host cell line not named in the record; reference of the full effect not given here | activation, % (concentration not given with the values) | 0.12% of 410,000 active | AID 624414, 2012; in the data active = activation above about 50%; inconclusive = about 30% to 50%; inactive = below about 30%; note: 0% is about no effect; the text of the record puts the active cut at 80%
Target sequence (Q9GZU1 whole entry, looked up): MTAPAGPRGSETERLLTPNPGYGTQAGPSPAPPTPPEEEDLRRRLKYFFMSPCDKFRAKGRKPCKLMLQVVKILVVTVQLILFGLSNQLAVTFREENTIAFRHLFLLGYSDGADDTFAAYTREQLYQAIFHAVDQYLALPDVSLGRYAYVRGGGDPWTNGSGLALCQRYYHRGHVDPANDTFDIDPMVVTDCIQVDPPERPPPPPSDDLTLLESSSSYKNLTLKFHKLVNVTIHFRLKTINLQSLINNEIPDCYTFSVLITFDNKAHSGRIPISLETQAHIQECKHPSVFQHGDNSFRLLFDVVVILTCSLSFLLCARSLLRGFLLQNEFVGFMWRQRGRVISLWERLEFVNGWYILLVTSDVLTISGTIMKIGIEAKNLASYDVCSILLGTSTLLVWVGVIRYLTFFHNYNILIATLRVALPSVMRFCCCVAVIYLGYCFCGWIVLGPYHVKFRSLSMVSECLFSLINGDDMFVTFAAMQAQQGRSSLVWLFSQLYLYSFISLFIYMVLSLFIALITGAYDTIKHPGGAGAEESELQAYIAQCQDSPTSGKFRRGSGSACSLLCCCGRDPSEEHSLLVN
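Tetracycline-induced TRPML1-DL cells are seeded and incubated overnight before loading with a no-wash Ca2+ dye and quencher. Agonist activity is taken from the 110 s fluorescence read following compound pin-transfer on an FDSS, before EC80 54-4 challenge.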
gsp agonist: qHTS for Agonist of gsp, the Etiologic Mutation Responsible for Fibrous Dysplasia/McCune-Albright Syndrome: qHTS. AID 624287, 2012. 0.13% of 340,000 active. gsp mutant cells, cAMP HTRF, 30 min; control for the full effect not named in the record. Potency, µM (series often up to 76.9 µM), inactives show at the top dose activation (cAMP increase), most hits filed as activators; active = well fitted activation curve with a large enough effect; inconclusive = small, poorly fitted or top-dose-only effect, or another doubt; inactive = no such curve, though single readings can be large or run the other way; cell line not stated here;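 note: phosphodiesterase inhibitor Ro 20-1724 added with compounds to block cAMP breakdown; potency is the fitted concentration of half-maximal effect; nearly all actives have a fitted effect of over 60% in size; about a fifth of the inactives were tested at one dose only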
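Cells in DMEM/10% FBS with G418 were pretreated with compounds in DMSO plus […] (300 uM stock) for 30 min at 37C. cAMP was measured by HTRF (cAMP-d2 plus anti-cAMP antibody-K) after 30 min at room temperature.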
Menin-MLL FL inh: qHTS Assay for Inhibitors Targeting the Menin-MLL Interaction in MLL Related Leukemias: Competition With Fluorescein Labeled MLL-derived Peptide. 290,000 tested, under 10 active. Fluorescence polarization, fluorescein-MLL peptide displacement from menin. FP activity change, % at 61.4 µM. AID 1766, 2009; inconclusive = falling polarisation curve, or a change in total fluorescence; inactive = total fluorescence flat and polarisation flat or rising; no compound was filed as active; the % refers to the polarisation; negative = inhibition;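 note: % of control where 0% means no effect; inhibitors lower the polarisation; unlabelled MLL peptide was the positive control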
ClpP mod: qHTS Assay for Activators of ClpP | ATP-dependent Clp protease proteolytic subunit (Bacillus subtilis (strain 168)), P80244 | purified B. subtilis ClpP, FRET peptide cleavage, 20 min | Potency, µM (highest dose often 57.5 µM), inactives show at the highest dose activity change, negative = active | 1.9% of 340,000 active; active = well fitted falling curve with a large enough effect; inconclusive = small, poorly fitted or top-dose-only effect; inactive = no such curve, though single readings can be large or run the other way; note: potency is the fitted concentration of half-maximal effect; the source files actives as falling curves though it sought activators and does not explain the sign; nearly all actives have a fitted effect of over 65% in size; many hits overshoot -100%
Target sequence (P80244 whole entry, looked up): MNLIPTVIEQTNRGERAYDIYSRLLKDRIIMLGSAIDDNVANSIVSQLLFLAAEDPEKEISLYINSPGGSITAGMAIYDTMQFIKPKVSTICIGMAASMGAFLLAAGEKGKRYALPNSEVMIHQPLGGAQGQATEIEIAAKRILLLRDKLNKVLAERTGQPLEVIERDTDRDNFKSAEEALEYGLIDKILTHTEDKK
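Buffer: 100 mM Tris/HCl pH8, 100 mM KCl, 0.05% low protease BSA, 2.5% glycerol, 0.01% Tween-20. ClpP 10 microg/mL final; 20 min RT; delta FRET normalized to ADEP and DMSO controls.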
gsp antagonist: qHTS for Antagonists of gsp, the Etiologic Mutation Responsible for Fibrous Dysplasia/McCune-Albright Syndrome: qHTS; Potency, µM (series often up to 76.9 µM), for inactives: top-dose activity change, negative = inhibition, hits mostly inhibitors; 0.4% of 340,000 active; gsp-mutant cells, cAMP HTRF, 30 min; control for the full effect not named in the record; active = falling curve of any shape with a large fitted effect; inconclusive = falling curve, mostly with a smaller effect; inactive = flat or rising curve; cell line not stated here;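 note: intracellular cAMP measured with PDE inhibitor Ro 20-1724 present during compound exposure; potency is the fitted concentration of half-maximal effect; % is set by controls: 0 for no effect and ±100 for the full control effect; nearly all actives have a fitted effect of over 65% in size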
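Measurement of cellular cAMP by homogeneous time-resolved fluorescence following a 30 min compound exposure at 37C. The PDE inhibitor […] was present throughout; the assay buffer was DPBS with 0.05% BSA and 0.005% Tween 20.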
TRPML1 blocker: qHTS for Inhibitors of the Human Mucolipin Transient Receptor Potential 1 (TRPML1). Mucolipin-1 (Homo sapiens), Q9GZU1. TRPML1-inducible cells, Ca2+ dye fluorescence, FDSS; active compounds read low; inhibition of EC80 agonist-evoked calcium signal. activity change, negative = inhibition, % (test concentration not listed). 0.02% of 390,000 active. AID 624415, 2012; in the data active means activity change below about -50%; inconclusive means about -30% to -50%; inactive means above about -30%;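 note: stimulus is agonist 54-4 at its EC80 concentration; % is set by controls: 0 for no effect and ±100 for the full control effect; compound concentration not given in the record; the text of the record puts the active cut at -80%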
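TRPML1-DL cells, Tet-induced overnight (~16 h, 37 °C) at 1,500 cells/well, were loaded with Ca8 no-wash dye plus quencher for 45-90 min at room temperature. Compounds were pinned during FDSS kinetic reading; agonist 54-4 at EC80 (4 uM final) then added.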
* hit, by the source's call; [ ] = remark or other dose.

Preview:
Results for Cc1ccc(C)c(S(=O)(=O)NCc2ccc(C(=O)N3CCCCC3C)cc2)c1 (stereo unspecified) ?
TRPML1 agonist: 1.0; gsp agonist: 3%; Menin-MLL FL inh: 3.8; ClpP mod: -2.0%; gsp antagonist: -18%; TRPML1 blocker: 6

What do the screens show for `Nc1nc(SCC(=O)Nc2ccccc2Oc2ccccc2)n[nH]1`?
TRPML1 agonist: 0.9; gsp agonist: 24%; Menin-MLL FL inh: 2.3; ClpP mod: -4.4%; gsp antagonist: -6%; TRPML1 blocker: -12

Main list (from the top)
Results for Cc1ccc(C)c(S(=O)(=O)NCc2ccc(C(=O)N3CCCCC3C)cc2)c1 (stereo unspecified) ?
TRPML1 agonist: 1.0; gsp agonist: 3%; Menin-MLL FL inh: 3.8; ClpP mod: -2.0%; gsp antagonist: -18%; TRPML1 blocker: 6

What do the screens show for `Nc1nc(SCC(=O)Nc2ccccc2Oc2ccccc2)n[nH]1`?
TRPML1 agonist: 0.9; gsp agonist: 24%; Menin-MLL FL inh: 2.3; ClpP mod: -4.4%; gsp antagonist: -6%; TRPML1 blocker: -12

What do the screens show for `CCN1CCN(C(=O)CCc2nnc3ccc(N4CCC5(CC4)OCCO5)nn23)CC1`?
TRPML1 agonist: 0.4; gsp agonist: inconclusive; Menin-MLL FL inh: -0.7; ClpP mod: -1.7%; gsp antagonist: 6%; TRPML1 blocker: 9

How did O=C(NCCN1CCOCC1)c1c[nH]c2ccc(S(=O)(=O)N3CCOCC3)cc2c1=O do in these assays?
TRPML1 agonist: -0.3; gsp agonist: -2%[15.4 µM]; Menin-MLL FL inh: 4.9; ClpP mod: 32µM*; gsp antagonist: 11%; TRPML1 blocker: -4

How did COc1cccc(CC2(CO)CCCN(Cc3nc(-c4cccs4)oc3C)C2)c1 (stereo unspecified) do in these assays?
TRPML1 agonist: 1.3; gsp agonist: 31%; Menin-MLL FL inh: 2.9; ClpP mod: -15%; gsp antagonist: -6%; TRPML1 blocker: 16

Results for O=C(/C=C/c1ccc(Cl)cc1)N1CCN(Cc2ccccc2)CC1 ?
TRPML1 agonist: 1.3; gsp agonist: 1%[15.4 µM]; Menin-MLL FL inh: 6.1; ClpP mod: -0.8%; gsp antagonist: 4%; TRPML1 blocker: 24

Results for O=[N+]([O-])c1cccc(CN2CCN(c3ncccn3)CC2)c1 ?
TRPML1 agonist: 0.1; gsp agonist: -15%[15.4 µM]; Menin-MLL FL inh: -3.4; ClpP mod: 1.5%; gsp antagonist: 15%; TRPML1 blocker: 6

What do the screens show for `O=C(c1ccc2c(c1)N(Cc1ccccc1)C(=O)c1ccccc1S2(=O)=O)N1CCN(c2ccccn2)CC1`?
TRPML1 agonist: -0.1; ClpP mod: 1.7%; TRPML1 blocker: 0

What do the screens show for `COc1ccc(CCNC(=O)CCCc2ccccc2)cc1OC`?
TRPML1 agonist: -0.2; gsp agonist: inconclusive; Menin-MLL FL inh: 0.0; gsp antagonist: 2%; TRPML1 blocker: 2

What do the screens show for `CCCC(=O)NCC(c1ccc2c(c1)OCO2)N1CCN(c2ccccc2)CC1` (stereo unspecified)?
TRPML1 agonist: -0.1; ClpP mod: -1.1%; TRPML1 blocker: 24

What do the screens show for `Cc1nnc(NC(=O)c2ccc3c(c2)OCO3)s1`?
TRPML1 agonist: -0.3; gsp agonist: 5%[15.4 µM]; Menin-MLL FL inh: 0.5; gsp antagonist: -3%; TRPML1 blocker: -2

What do the screens show for `COc1ccc(-n2c(C)c(C)c3c(NCCCO)ncnc32)cc1`?
TRPML1 agonist: -1.1; gsp agonist: -13%[15.4 µM]; Menin-MLL FL inh: -5.3; ClpP mod: 0.0%; gsp antagonist: 4%; TRPML1 blocker: 1

How did CCOC(=O)C1CCN(C(=O)c2ccccc2CCc2ccccc2)CC1 do in these assays?
TRPML1 agonist: 0.3; gsp agonist: -3%; Menin-MLL FL inh: -2.4; ClpP mod: 0.7%; gsp antagonist: -14%; TRPML1 blocker: -2

How did Cc1c(C(=O)NN)nn(-c2ccc(F)cc2)c(=O)c1C#N do in these assays?
TRPML1 agonist: 0.5; gsp agonist: -8%; Menin-MLL FL inh: -21; gsp antagonist: -1%; TRPML1 blocker: 9

How did O=C1COc2ccc(-c3cc(-c4ccc(Cl)cc4)c4c(n3)-c3ccccc3OC4)cc2N1 do in these assays?
TRPML1 agonist: -0.1; ClpP mod: -11%; TRPML1 blocker: 2

What do the screens show for `Cc1nc(CN(C)C(=O)CC2C(=O)NCCN2Cc2ccc(-c3ccccc3)cc2)cs1` (stereo unspecified)?
TRPML1 agonist: -0.1; gsp agonist: -32%; ClpP mod: -6.5%; gsp antagonist: 2%; TRPML1 blocker: -3

What do the screens show for `Cc1nn(Cc2noc(C(=O)NCCCn3ccnc3)n2)c(C)c1Br`?
TRPML1 agonist: 1.3; gsp agonist: 18%; Menin-MLL FL inh: 5.0; ClpP mod: -0.7%; gsp antagonist: 15%; TRPML1 blocker: -21

What do the screens show for `O=C(NC1CCSc2ccccc21)c1cc(S(=O)(=O)N2CCOCC2)ccc1Cl` (stereo unspecified)?
TRPML1 agonist: 1.2; gsp agonist: -13%[15.4 µM]; ClpP mod: -0.1%; gsp antagonist: 8%; TRPML1 blocker: -11

Results for Cc1ccc(C(=O)NC(c2ccccc2)C(Cl)Cl)cc1 (stereo unspecified) ?
TRPML1 agonist: -0.4; gsp agonist: -4%; Menin-MLL FL inh: 0.3; ClpP mod: 3.3%; gsp antagonist: -17%; TRPML1 blocker: 6

What do the screens show for `O=C(CN1c2cccc3cccc(c23)S1(=O)=O)Nc1ccc(S(=O)(=O)N2CCOCC2)cc1`?
TRPML1 agonist: -0.1; gsp agonist: 4%[15.4 µM]; Menin-MLL FL inh: 8.4; ClpP mod: inconclusive; gsp antagonist: -11%; TRPML1 blocker: -3

What do the screens show for `CSc1ccc(/C=N\NC(=O)CNc2ccc(C)cc2)cc1`?
TRPML1 agonist: 1.8; gsp agonist: 12%; Menin-MLL FL inh: 4.7; ClpP mod: 13%; gsp antagonist: -2%; TRPML1 blocker: -6

What do the screens show for `COc1cc(C2NC(=O)N(C)C3=C2C(=O)N(c2cccc(Cl)c2)C3)ccc1O` (stereo unspecified)?
TRPML1 agonist: 3.5; ClpP mod: -20%; TRPML1 blocker: -1

How did CCOc1cc(N2CCOCC2)c(OCC)cc1NC(=O)CSc1ccccc1C(=O)O do in these assays?
TRPML1 agonist: 2.1; gsp agonist: 12%; ClpP mod: -2.3%; gsp antagonist: -14%; TRPML1 blocker: 28

Results for C=CCn1c(CC(=O)Nc2ccc(C)cc2C)nnc1SCC(=O)N1CCOCC1 ?
TRPML1 agonist: -0.1; gsp agonist: -2%[15.4 µM]; ClpP mod: 1.2%; gsp antagonist: 19%; TRPML1 blocker: 12

What do the screens show for `CC(C)(C)c1csc(NC2=NS(=O)(=O)c3ccccc32)n1`?
TRPML1 agonist: -0.1; gsp agonist: 4%; Menin-MLL FL inh: 2.7; ClpP mod: 0.2%; gsp antagonist: inconclusive; TRPML1 blocker: 7

How did COc1cccc(NC(=O)C(C)OC(=O)CCCNC(=O)c2ccc(Cl)cc2)c1 (stereo unspecified) do in these assays?
TRPML1 agonist: -0.1; gsp agonist: 11%[15.4 µM]; ClpP mod: -2.2%; gsp antagonist: 1%; TRPML1 blocker: 3

Results for O=c1[nH]c(SCc2n[nH]c(=S)n2-c2ccccc2)nc2sc3c(c12)CCC3 ?
TRPML1 agonist: -0.1; gsp agonist: 3%; Menin-MLL FL inh: 2.0; ClpP mod: -1.7%; gsp antagonist: 6%; TRPML1 blocker: -11

What do the screens show for `COc1cc(C(=O)NNC(=O)C2CCC2)cc(OC)c1OC`?
TRPML1 agonist: -0.3; gsp agonist: 25%; ClpP mod: -0.5%; gsp antagonist: 11%; TRPML1 blocker: -3

How did Cc1ccc(CSc2nnc(-c3ccc(NS(=O)(=O)c4ccccc4)cc3)o2)cc1 do in these assays?
TRPML1 agonist: 2.5; gsp agonist: 16%; Menin-MLL FL inh: 6.6; ClpP mod: -2.8%; gsp antagonist: -27%; TRPML1 blocker: 22

Results for O=C(CSc1ccccc1)N1CCN(c2ccc(F)cc2)CC1 ?
TRPML1 agonist: -0.5; gsp agonist: 28%; gsp antagonist: -1%; TRPML1 blocker: 20

How did CCN(CC)c1ccc(/C=N/NC(=O)c2ccoc2C)c(O)c1 do in these assays?
gsp agonist: 22%; Menin-MLL FL inh: 6.7; ClpP mod: -10%; gsp antagonist: -8%

Results for O=C(c1cccs1)N1CCn2c1nc1ccccc12 ?
TRPML1 agonist: 0.0; gsp agonist: -9%; Menin-MLL FL inh: -3.1; ClpP mod: -1.4%; gsp antagonist: -8%; TRPML1 blocker: -11

How did CCc1cc2c(NCc3ccccc3)nc(C)nc2s1 do in these assays?
gsp agonist: inconclusive; Menin-MLL FL inh: -1.8; ClpP mod: -2.6%; gsp antagonist: inconclusive

Results for O=C(NCc1ccc(Cl)nc1)c1ccc2sc([C@@H]3O[C@H](CO)[C@H](O)[C@H](O)[C@H]3O)nc2c1 ?
TRPML1 agonist: -0.2; ClpP mod: -0.6%; TRPML1 blocker: 37

Results for Cc1cc(NC(=O)c2cc(-c3cccnc3)nc3c(C)c(C)ccc23)no1 ?
TRPML1 agonist: 0.8; gsp agonist: 0%; Menin-MLL FL inh: -3.5; ClpP mod: inconclusive; gsp antagonist: 6%; TRPML1 blocker: -12

How did COc1ccc(S(=O)(=O)Nc2cc(C)nn2-c2ccccc2)cc1 do in these assays?
TRPML1 agonist: -0.9; gsp agonist: -5%; Menin-MLL FL inh: -2.7; ClpP mod: -1.4%; gsp antagonist: -2%; TRPML1 blocker: 13

Results for Cc1ccccc1NC(=O)CS(=O)(=O)c1cn(CC(=O)N2CCOCC2)c2ccccc12 ?
TRPML1 agonist: -0.9; gsp agonist: 7%; Menin-MLL FL inh: -0.2; ClpP mod: 1.8%; gsp antagonist: 5%; TRPML1 blocker: -11

What do the screens show for `COC(=O)c1c(NC(C)=O)c2c3c(sc2n1Cc1cc(C)ccc1C)CCCC3`?
TRPML1 agonist: 0.4; ClpP mod: -5.9%; TRPML1 blocker: -14

What do the screens show for `C=CCNc1nc2ccccc2nc1NS(=O)(=O)c1ccc(Cl)cc1`?
gsp agonist: 8%; Menin-MLL FL inh: 0.8; ClpP mod: -9.1%; gsp antagonist: inconclusive
